Source: PubChem BioAssay (National Center for Advancing Translational Sciences (NCATS))
TRPML1 agonist: agonists of human TRPML1 channel | 410,000 tested, 0.12% active | TRPML1-expressing cells, Ca2+ dye fluorescence, FDSS; host cell line not named in the record; reference of the full effect not given here | activation, % (concentration not given with the values) | AID 624414 | Q9GZU1; in the data active = activation above about 50%; inconclusive = about 30% to 50%; inactive = below about 30%; further: 0% is about no effect; the text of the record puts the active cut at 80%
Target sequence (Q9GZU1 whole entry, looked up): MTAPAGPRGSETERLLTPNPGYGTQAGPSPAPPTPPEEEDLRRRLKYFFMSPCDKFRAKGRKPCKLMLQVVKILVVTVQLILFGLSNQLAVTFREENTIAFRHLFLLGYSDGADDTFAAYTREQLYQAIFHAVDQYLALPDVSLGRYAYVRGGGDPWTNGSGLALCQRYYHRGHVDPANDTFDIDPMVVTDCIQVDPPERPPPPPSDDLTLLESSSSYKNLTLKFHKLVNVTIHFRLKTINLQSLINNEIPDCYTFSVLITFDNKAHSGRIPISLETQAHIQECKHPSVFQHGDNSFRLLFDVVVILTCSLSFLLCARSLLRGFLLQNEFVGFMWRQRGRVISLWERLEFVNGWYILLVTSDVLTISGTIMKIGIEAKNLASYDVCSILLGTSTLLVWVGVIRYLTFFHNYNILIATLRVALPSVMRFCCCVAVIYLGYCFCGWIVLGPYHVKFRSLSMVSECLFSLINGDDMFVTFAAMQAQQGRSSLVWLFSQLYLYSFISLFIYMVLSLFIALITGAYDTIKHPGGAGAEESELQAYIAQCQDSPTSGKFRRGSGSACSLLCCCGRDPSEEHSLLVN
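Cells: TRPML1-DL, 1X Tet inducer, ~16 h at 37 degrees C/5% CO2. Dye: ABD Ca8 no-wash + quencher, 45-90 min RT. Read: 10 s baseline, compound add, 110 s agonist phase; 54-4 EC80 (4uM final), 110 s antagonist phase.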
Six1-Eya2 inh: Six1/Eya2 interaction inhibition; Q15475+O00167; AlphaScreen GST-Six1/His-Eya2 binding, biochemical; hits give low values; control for the full effect not named in the record; activity change, % (test concentration not listed); 360,000 tested, 0.56% active; in the data active = activity change below about -65%; inconclusive = about -30% to -65%; inactive = above about -30%; further: on the % scale 0 is the no-effect control and ±100 the full control effect; compound concentration not given in the record
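AlphaScreen with GST-Six1 and His-Eya2 (5X mix: 250 nM and 500 nM), glutathione donor and nickel acceptor beads; buffer 50 mM Tris pH 8.0, 300 mM NaCl, 1 mM TCEP; 1 h at 37 C in the dark.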
D2 ag: agonists of human D2 dopamine receptor (beta-arrestin). 360,000 tested, 0.084% active. AID 624465. activation, % (no concentration beside the values). P14416. DiscoveRx PathHunter D2 beta-arrestin, luminescence, 90 min; 100% = 57 uM dopamine signal; in the data active = activation above about 40%; inconclusive = about 15% to 40%; inactive = below about 15%; further: compound concentration not given in the record; the text of the record calls up to 30% inactive
Target sequence (P14416 whole entry, looked up): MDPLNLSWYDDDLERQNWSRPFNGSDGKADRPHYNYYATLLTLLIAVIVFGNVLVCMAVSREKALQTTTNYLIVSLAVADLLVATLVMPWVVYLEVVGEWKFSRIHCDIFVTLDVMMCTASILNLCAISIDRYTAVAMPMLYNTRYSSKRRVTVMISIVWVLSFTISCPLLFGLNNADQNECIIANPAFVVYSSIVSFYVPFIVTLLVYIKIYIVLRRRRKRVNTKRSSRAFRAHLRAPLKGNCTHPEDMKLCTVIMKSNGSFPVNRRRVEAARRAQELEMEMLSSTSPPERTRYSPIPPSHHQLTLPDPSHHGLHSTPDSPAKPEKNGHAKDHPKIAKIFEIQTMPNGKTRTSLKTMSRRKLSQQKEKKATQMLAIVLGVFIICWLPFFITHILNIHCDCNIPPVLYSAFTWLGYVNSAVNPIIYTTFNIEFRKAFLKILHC
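DiscoveRx PathHunter D2 beta-arrestin cells (2,100/well) attached overnight, then compound-stimulated 90 min at 37 C in HBSS/10 mM HEPES/0.1% Tween-20 buffer; beta-galactosidase complementation read by luminescence after 1 h at ambient temperature. Dopamine 57 uM final (EC100) as control.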
D2 PAM: potentiates the human D2 dopamine receptor allosterically; P14416; DiscoveRx D2 beta-arrestin cells, luminescence, 90 min; 100% = 57 uM dopamine signal; potentiation, % (concentration not given with the values); 360,000 tested, 0.23% active; AID 624464; active = potentiation of 50% or more; inconclusive = 30% to 50%; inactive = 30% or less;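 further: compound concentration not given in the record; tested on top of an EC20 dose of dopamine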
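PathHunter beta-arrestin assay in DiscoveRx D2 cells. Compounds were added with an EC20 of dopamine (50 nM final) for 90 min at 37 deg C. Luminescence was read 1 h after detection reagent, with 57 uM dopamine as the EC100 control.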
CtBP-E1A blk: inhibitors of CtBP/E1A interaction; AlphaScreen GST-E1A/His-CtBP binding, 1536-well; hits give low values; control for the full effect not named in the record; activity change, % (concentration not given with the values); 340,000 tested, 0.49% active; AID 651724; in the data active means activity change below about -65%; inconclusive means about -30% to -65%; inactive means above about -30%; further: on the % scale 0 is the no-effect control and ±100 the full control effect
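AlphaScreen with 125 nM GST-E1A and 125 nM His-CtBP (5X stocks) in Tris pH 8.0, 300 mM NaCl, BSA, Tween 20, TCEP. Compounds preincubated 2 h at 37 deg C, then glutathione donor/nickel acceptor beads added for 1 h at 37 deg C in dark.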
PINK1 expr mod: changes PINK1 expression. PINK1 immunofluorescence, high-content cytometry, 24 h. Potency, µM (series often up to 76.6 µM), for the others: at the top dose activation (PINK1 increase), usual class: activators. 410,000 tested, 0.2% active. AID 624263; active = well fitted activation curve with a large enough effect; inconclusive = small, poorly fitted or top-dose-only effect; inactive = flat fitted curve, though single readings scatter; cell line not stated here;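 further: potency means the concentration at half of the fitted maximal effect; % of control where 0% means no effect; nearly all actives have a fitted effect of over 65% in size; a mitochondrial uncoupler was the plate control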
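Decision-based qHTS: stable cells, 24 h exposure to five compound concentrations, CCCP as control. Fixed cells stained for PINK1 plus nuclear, mitochondrial and cell markers, cytometer read.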
Numbers without * were called inactive; ? = inconclusive; · = not tested or not shown; & = joins results of further samples; [ ] = dose if it differs, or a comment. No enrichment for hits. Share with any hit: about 1.3%.

SMILES | TRPML1 agonist | Six1-Eya2 inh | D2 ag | D2 PAM | CtBP-E1A blk | PINK1 expr mod
COc1ccc(CC(=O)Nc2cc(S(=O)(=O)N3CCCCC3)ccc2OC(C)C)cc1OC | 0.0 | -4.9 | 4.4 | 11.7 | 2.5 | 2.2%
Cc1ccc(CN2CN(S(=O)(=O)c3cccs3)c3nc4ccccc4nc32)cc1 | -1.1 | -4.9 | -1.6 | -6.4 | 1.5 | -1.4%
CC(C)CCNC(=O)CN(C(=O)CCC(=O)Nc1ccccn1)c1ccc(F)c(Cl)c1 | 0.7 | 4.0 | -1.7 | -4.1 | · | 1.0%
O=C(CP(=O)(c1ccccc1)c1ccccc1)Nc1nc2ccccc2s1 | -0.4 | -11.3 | -4.4 | -0.9 | -19.5 | 0.1%
C=C(CC1([C@@H](NP(=O)(c2ccccc2)c2ccccc2)[C@H]2C[C@@H]2CCCC)CC1)c1ccccc1 | 1.0 | -1.7 | -3.2 | -9.6 | -1.5 | 14.1%
O=C(Nc1ccc(Cl)cc1C(=O)c1ccccn1)c1ccccc1 | -0.4 | -7.6 | -5.3 | -8.3 | 1.0 | 0.1%
COc1ccc(N2CCN(C(CNC(=O)COc3ccccc3)c3ccco3)CC2)cc1 (configuration not stated) | -0.8 | ? | -1.9 | 14.8 | -10.1 | 0.3%
OCC(Cc1ccccc1)NCc1ccccc1C(F)(F)F (configuration not stated) | -0.6 | -1.0 | -2.5 | -25.5 | -2.0 | -0.6%
CS(=O)(=O)N(Cc1ccc(C(=O)NN=C2CCCC2)cc1)c1ccccc1 | 0.5 | -0.3 | -1.6 | -16.5 | -14.0 | 2.8%
CC(C)c1cc(=O)[nH]c(N2CCN(Cc3ccc4c(c3)OCO4)CC2)n1 | 1.0 | 3.5 | -5.0 | -7.2 | -10.7 | 1.0%
CCOC(=O)N1CCN(C/C(C)=C/c2ccccc2)CC1 | 3.3 | 6.5 | ? | 21.9 | 12.5 | -4.7%[38.3 µM]
Cc1cc(=O)oc2cc(O)c(N=Nc3ccccc3)cc12 | 0.4 | 0.2 | -1.5 | -4.1 | 0.0 | 2.3%
O=C(CCc1ccc(S(=O)(=O)N2CCOCC2)cc1)NCCCN1CCCC1=O | 0.3 | 4.4 | -0.8 | -4.6 | 1.2 | 1.4%[38.3 µM]
Cc1oc(-c2cccs2)nc1CS(=O)CC(=O)NCCCN1CC(C)CC(C)C1 (configuration not stated) | -0.6 | 3.4 | -4.1 | -7.1 | -2.4 | 0.2%
COc1cccc(-n2c(C)n[nH]c2=O)c1 | -0.2 | -1.2 | -3.5 | -13.6 | 1.6 | 0.1%
C/C=C/C(=O)OCC(=O)Nc1ccc(F)cc1Cl | -0.3 | 2.8 | 0.3 | -10.1 | -0.3 | -1.1%
CC(=O)NC1CC2CCCC(C1)N2C(=O)Nc1ccccc1C (configuration not stated) | -0.4 | 15.6 | -1.6 | -25.0 | · | -1.1%
CC(C)(C)S(=O)N1Cc2cc(C(=O)N3CCOCC3)nc(-c3cccc(Br)c3)c2[C@@H]1CCO (some centres not stated) | 0.4 | -3.4 | 1.1 | -0.7 | -0.7 | 0.5%
Cc1cc(C(=O)OCC(=O)N2CC(C)OC(C)C2)c2ccccc2n1 (configuration not stated) | 0.0 | 0.2 | -1.6 | -3.3 | -0.4 | 0.7%
CC(C)(C)c1cc(NC(=O)C2(C)CCN2C(=O)c2ccccc2CCc2ccccc2)no1 (configuration not stated) | 0.4 | -4.7 | 3.0 | 0.4 | 1.7 | 0.3%
CCN(CC)S(=O)(=O)c1ccc2c(c1)oc(=O)n2CC(=O)N(C)C1CCCCC1 | -0.7 | 8.0 | 9.2 | -0.5 | -9.3 | 0.1%
Cc1cc2cc(CNC(=O)CCC(=O)O)ccc2[nH]1 | -1.0 | 3.3 | -0.2 | -3.7 | 13.8 | 0.6%
CCOC(=O)CNC(=O)Cn1cnc2ccc(S(=O)(=O)N3CCC(C)CC3)cc2c1=O | 2.5 | 2.0 | -0.6 | 3.2 | 2.7 | -2.6%
CC(C)(C)C(=O)NC(=S)Nc1sc2c(c1C(N)=O)CCC2 | 0.1 | -9.3 | -0.4 | 3.4 | -4.9 | 8.6%
Cc1ccc(-c2nn(-c3ccccc3)cc2C2CC(c3ccccc3)=NN2C(=O)CCC(=O)O)cc1 (configuration not stated) | -0.1 | -5.8 | -1.2 | -1.4 | -3.3 | -2.4%
CS(=O)(=O)N(CC(=O)NCC1CCCO1)c1cccc([N+](=O)[O-])c1 (configuration not stated) | 0.6 | -1.0 | 1.9 | -2.6 | -4.4 | 1.0%
Cc1cccc(NC(=O)c2ccc3c(=O)n4c(nc3c2)CCCCC4)n1 | -1.1 | -7.2 | 0.6 | 20.5 | -0.4 | 4.6%
CC#CC(=O)N1CCC(n2nccc2NC(=O)CCc2ccccc2)CC1 | -0.6 | 0.6 | -2.2 | -13.2 | -8.6 | -1.5%
Cc1coc2c1c(C)cc1oc(=O)c(CC(=O)NCC(=O)N[C@H](C(=O)O)C(C)C)c(C)c12 | 1.4 | -8.0 | -5.4 | -8.9 | -23.9 | 1.9%
Clc1cc(Cl)c2nc(N3CCCC3)sc2c1 | 0.2 | 27.8 | -1.1 | -2.1 | 30.1 | 7.9%
O=C(COc1ccc2c(c1)CCC2)N1CCc2ccccc21 | 4.8 | 17.5 | -1.6 | -13.9 | 6.8 | ?
CCc1nc2ccccc2c(C(=O)NCc2ccc(OC)cc2)c1C | 0.4 | 7.6 | -1.1 | -2.6 | 2.9 | 4.6%
CC(=O)Nc1cccc(-c2cc(NC(C)=O)c3ncc(-c4ccccc4)n3c2)c1 | -1.1 | -8.8 | 6.5 | 8.8 | -7.6 | 6.6%
CCCSC1=C(C#N)C(c2cccs2)CC(=O)N1 (configuration not stated) | 0.6 | -1.9 | 0.3 | -6.4 | -6.0 | 0.2%
O=C(NC(=S)Nc1ccc(Cl)cn1)c1cccs1 | 0.7 | 0.1 | -0.6 | -23.6 | -8.0 | 3.3%
CCC(=O)Nc1nc(=S)ss1 | 0.9 | -3.5 | -4.9 | -12.6 | 2.1 | 0.6%
COC(=O)Cc1c(C)nc2nc(NCc3ccccc3OC)[nH]n2c1=O | -1.1 | 0.3 | -3.4 | -17.5 | 2.8 | -0.2%
CCN(CC)c1ccc2nc3ccc(N)cc3[n+](-c3ccccc3)c2c1 | 2.0 | -77.7* | -11.1 | -28.7 | -84.3* | 10µM*
COc1cccc2c3cccc(OC)c3c3[nH]cnc3c12 | 0.0 | -16.8 | 1.1 | 1.5 | -2.1 | -6.4%
CC(=O)Nc1ccc(-c2csc(NC(=O)C3=COCCO3)n2)cc1 | -0.5 | 3.4 | -5.8 | -1.6 | -0.8 | -0.5%
COC(=O)c1nnn(-c2ccccc2)c1N | 0.0 | 2.9 | -3.9 | 11.5 | 5.3 | -1.3%
O=C(NCc1ccco1)c1ccccc1-c1ccc(C(F)(F)F)cc1 | 1.3 | 0.6 | -4.7 | -22.5 | 2.7 | 0.9%
CCCCNC(=O)CNC(=S)N(Cc1ccccc1)Cc1cccs1 | 1.2 | 3.7 | 5.8 | -2.1 | 3.0 | -0.2%
COCCn1c(=S)[nH]c2cc(C(=O)NC(C)C)ccc2c1=O | 0.2 | 7.0 | -2.2 | 13.4 | 6.8 | 3.9%
C/C=C/c1ccc(OCC(=O)Nc2ccc(OC)c(OC)c2)c(OC)c1 | 0.2 | -8.0 | -1.7 | -4.0 | -8.3 | 4.0%
CC1(C)CC(NS(=O)(=O)OCC(Cl)(Cl)Cl)c2cc(C#N)ccc2O1 (configuration not stated) | 2.2 | 9.9 | -4.0 | -3.8 | -19.0 | ?
COCC(=O)N/N=C/c1c(C)[nH]n(-c2ccccc2)c1=O | 0.0 | -76.8* | -3.8 | -9.8 | -89.8* | -3.0%
CC1CN=C2C(C(=O)Nc3ccccc3)=C(O)CC(c3ccccc3)N21 (configuration not stated) | 3.4 | -1.9 | 3.1 | -19.2 | -3.2 | ?
Nc1c(N(CCO)C(=O)/C=C/c2ccco2)c(=O)[nH]c(=O)n1Cc1ccccc1 | 0.2 | -2.1 | 4.5 | -6.0 | · | -2.7%
Cc1cc(NC(=O)c2cccc(S(=O)(=O)N3CCC(C)CC3)c2)no1 | 0.1 | 1.9 | -2.2 | -13.2 | -1.9 | -0.2%
O=c1cc(CN(Cc2ccccc2)Cc2ccccc2)c2ccccc2o1 | 1.7 | 16.4 | -5.9 | -9.7 | 14.9 | 0.5%
CC(=O)N1CCN(C(=O)c2ccc(S(=O)(=O)Nc3ccccc3Cl)cc2)CC1 | 0.6 | 4.3 | -2.8 | -3.2 | 0.7 | 1.2%
O=C(CSc1nnc(C2CC2)n1-c1ccccc1)Nc1ccc(N2CCOCC2)cc1 | -1.2 | -3.1 | -2.5 | 0.0 | -0.7 | -1.1%
O=C1C2CCCN2C(=O)N1CCCN1CCN(c2cccc(Cl)c2)CC1 (configuration not stated) | -0.4 | -3.0 | 1.9 | -23.7 | -1.7 | 3.5%
O=C(Oc1ccc(C(=S)N2CCOCC2)cc1)c1ccccc1[N+](=O)[O-] | 1.0 | ? | 0.2 | 0.8 | -7.1 | 0.7%
CN(C)CCCNc1nc2sc3c(c2c(=O)n1CCc1ccccc1)CCCCC3 | 1.2 | -12.5 | -8.9 | -24.0 | 0.0 | -2.3%
O=C(CCC(=O)OCc1ccc([N+](=O)[O-])cc1Cl)Nc1ccccc1 | -0.4 | 3.9 | -1.1 | 9.6 | -4.6 | 2.0%
CCOC(=O)CC(NC(=O)Cn1nnc(-c2ccccc2F)n1)c1ccc(OC)cc1 (configuration not stated) | 1.1 | -12.6 | 2.0 | -4.2 | -23.3 | -1.2%
N#Cc1nc(N2CCOCC2)nc(N2CCOCC2)n1 | -0.2&-0.5 | -4.1 | -3.8 | -3.2 | -2.4 | -0.7%&-0.7%
CCOC(=O)CNC(=O)C12CC3CC(C1)CC(c1ccc(C)cc1)(C3)C2 | -1.6 | 8.7 | -4.5 | -5.3 | 8.9 | 0.4%
COc1cc(/C=N/Nc2nn3cnnc3c3ccccc23)ccc1O | 0.9 | -88.7* | 2.4 | 6.1 | -89.5* | ?

Structures listed so far containing a furan ring, fused or not, in the order listed:
SMILES | TRPML1 agonist | Six1-Eya2 inh | D2 ag | D2 PAM | CtBP-E1A blk | PINK1 expr mod
COc1ccc(N2CCN(C(CNC(=O)COc3ccccc3)c3ccco3)CC2)cc1 (configuration not stated) | -0.8 | ? | -1.9 | 14.8 | -10.1 | 0.3%
Cc1coc2c1c(C)cc1oc(=O)c(CC(=O)NCC(=O)N[C@H](C(=O)O)C(C)C)c(C)c12 | 1.4 | -8.0 | -5.4 | -8.9 | -23.9 | 1.9%
O=C(NCc1ccco1)c1ccccc1-c1ccc(C(F)(F)F)cc1 | 1.3 | 0.6 | -4.7 | -22.5 | 2.7 | 0.9%
Nc1c(N(CCO)C(=O)/C=C/c2ccco2)c(=O)[nH]c(=O)n1Cc1ccccc1 | 0.2 | -2.1 | 4.5 | -6.0 | · | -2.7%
